AID504770 – growth inhibition of E. coli YBA685, primary screen, V. cholerae RctB inhibitors | E. coli YBA685 rctB-dependent plasmid, OD600 growth, 3 h; active compounds read low | z-score (test concentration not listed) | 130,000 compounds, 0.27% hits;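 active = z-score under -2 on both plates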;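 note: wells of about 30 µL received 100 nL stock; score is relative to mean and SD of the test wells; the first replicate is given; strong numbers were not always called active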
Ba CapD inh – Bacillus anthracis CapD inhibitors, primary screen, biochemical, fluorescence intensity; CapD gamma-glutamyltranspeptidase (Bacillus anthracis Ames Ancestor); purified CapD enzyme, fluorescence intensity read-out; active compounds read low; some hits fall short of the stated cut; z-score (no concentration beside the values); 140,000 compounds, 0.23% hits; AID 492967, 2010;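 active = z-score under -4 in either of two replicates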;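 note: stock transfer was 100 nL into about 40 µL; score is relative to mean and spread of the plate; one replicate is shown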
The depositor's hits bear a star. Compounds as they come; about 0.37% have a hit in one of these screens.

`COc1ccc2cc3c(N)nn(C(=O)CSc4ccncc4)c3nc2c1` gave AID504770 -0.65 and Ba CapD inh 0.28.
`CC1(C)C2CCC1(CS(=O)(=O)NCc1ccncc1)C(=O)C2` (stereo not drawn) gave AID504770 2.2.
For Cc1ccc(N(CC(O)CN2CCCCC2)S(=O)(=O)c2ccc3ccccc3c2)cc1 (stereo not drawn) the results were Ba CapD inh -0.14.
Screening FC(F)(F)c1ccnc(N2CCCN(c3ncnc4scc(-c5ccccc5)c34)CC2)n1 returned Ba CapD inh 1.12.
Cc1cc(C)cc(N2C(=O)C(C)SC23CCCCC3)c1 (stereo not drawn) was read as AID504770 0 and Ba CapD inh 0.41.
`Cc1ccc2cc(C#N)c(N3CCCN(S(=O)(=O)c4ccccc4)CC3)nc2c1` gave AID504770 -0.2.
Screening O=C(CNC(=S)N(Cc1ccccc1F)C1CCCCC1)N1CCc2ccccc21 returned AID504770 -0.95 and Ba CapD inh 22.8.
For Cn1nc(C(=O)N2CCCc3ccccc32)c2ccccc2c1=O the results were AID504770 -0.25.
`O=C(NCC1CCCO1)c1cc(-c2ccc(Cl)cc2)cs1` (stereo not drawn) gave Ba CapD inh -0.62.
For CCN(CC)S(=O)(=O)c1cccc(C(=O)N/N=C/c2ccc(OC(=O)c3ccco3)c(OC)c2)c1 the results were AID504770 -0.1.
`O=C(Nc1ccc(F)cc1F)c1cc2sccc2nc1C(F)(F)F` gave Ba CapD inh 0.025.
Screening CC1CCCCC1NS(=O)(=O)c1cc(C(=O)Nc2cccc(Cl)c2)ccc1F (stereo not drawn) returned Ba CapD inh -0.105.
`CCOc1ccc(C(CN)CC(=O)O)cc1OCC` (stereo not drawn) gave AID504770 1.45 and Ba CapD inh -0.005.
CCCCOC(=O)C1Cc2c([nH]c3ccccc23)C(C)N1 (stereo not drawn) was read as Ba CapD inh -1.53.
`CCC(CO)NS(=O)(=O)c1c(C)nc2sccn2c1=O` (stereo not drawn) gave AID504770 0.85 and Ba CapD inh 30.5.
Screening COCCn1c(N)c(C(=O)NS(=O)(=O)c2ccc(C)cc2)c(=O)[nH]c1=O returned AID504770 -1.7.
For CS(=O)(=O)Nc1cc(Cl)c(O)c(Br)c1 the results were AID504770 1.1.
Screening Cc1cc(C(F)(F)F)c2c(C)nn(-c3ccccc3)c2n1 returned AID504770 0.85 and Ba CapD inh 20.3.
`CCCn1c(=O)cc(N)n(-c2ccccc2C)c1=O` gave AID504770 1.4 and Ba CapD inh 0.39.
O=C(O/N=C/c1ccc2c(c1)OCO2)c1ccc(Cl)cc1 was read as Ba CapD inh 3.44.

Fetched one by one from the entries so far:
Screening CC1CCCCC1NS(=O)(=O)c1cc(C(=O)Nc2cccc(Cl)c2)ccc1F (stereo not drawn) returned Ba CapD inh -0.105.
Cc1cc(C)cc(N2C(=O)C(C)SC23CCCCC3)c1 (stereo not drawn) was read as AID504770 0 and Ba CapD inh 0.41.
O=C(O/N=C/c1ccc2c(c1)OCO2)c1ccc(Cl)cc1 was read as Ba CapD inh 3.44.
`CCCn1c(=O)cc(N)n(-c2ccccc2C)c1=O` gave AID504770 1.4 and Ba CapD inh 0.39.

Other compounds:
For O=C(C1CCCCC1)N1CCC(O)(c2ccc(Cl)cc2)CC1 the results were AID504770 -0.25 and Ba CapD inh 1.06.
Screening CN(C1CCN(Cc2ccc(-c3ccccc3)cc2)C1)S(=O)(=O)c1ccc(Br)cc1 (stereo not drawn) returned Ba CapD inh -0.055.
Screening O=C(CN1CC(c2ccccc2)CC1=O)OCc1cccc(Br)c1 (stereo not drawn) returned AID504770 0.1 and Ba CapD inh 0.32.
Screening CN(C)S(=O)(=O)N(C)c1ccc(O)cc1 returned AID504770 -0.25 and Ba CapD inh -0.1.
`O=C1CC(C(=O)NCCc2ccccc2)C2(CCCCC2)O1` (stereo not drawn) gave AID504770 -0.6.
`O=c1[nH]c(=S)[nH]nc1-c1ccc(F)c(F)c1` gave AID504770 -0.75.
`COC(=O)c1ccccc1-n1cnnn1` gave AID504770 -0.65.
C(=C\c1ccco1)/C1=NN(Cc2ccccc2)CC1 was read as AID504770 -0.45 and Ba CapD inh 51.1.
For O=C(CSc1cn[nH]n1)Nc1ccccc1 the results were AID504770 0.85.
For O=S(=O)(c1cccs1)N1CCC(C(c2ccccc2)c2ccccc2)CC1 the results were AID504770 0.35 and Ba CapD inh -0.16.
For CC(C)OC(=O)C1C(=O)CC(C)(O)C(C(=O)OC(C)C)C1c1ccccc1 (stereo not drawn) the results were AID504770 -0.8 and Ba CapD inh 0.15.
`Cc1cc(NC(=O)CCN2C(=O)/C(=C\c3ccccc3F)SC2=S)no1` gave AID504770 0.1 and Ba CapD inh -0.26.
O=C(CCSc1nnc2c(n1)[nH]c1ccccc12)N1CCOCC1 was read as AID504770 -0.5 and Ba CapD inh -0.43.
`O=C(O)c1nc(N2CCOCC2)ncc1Cl` gave AID504770 -0.8.
For CN(NC(=S)NC(=O)c1ccccc1)c1ncc(C(F)(F)F)cc1Cl the results were Ba CapD inh 0.16.
O=c1c2c(n3cnnc3n1-c1ccccc1)-c1ccccc1CC21CCCC1 was read as Ba CapD inh 0.235.
Screening c1ccc(NCn2cncn2)nc1 returned AID504770 -0.9 and Ba CapD inh 1.29.
c1ccc2c(c1)CCCN2Cc1nnc2n1CCCCC2 was read as AID504770 1.5 and Ba CapD inh -1.25.
For Cc1c(NNc2cc3c(c([N+](=O)[O-])c2C)C(C)(C)CC3(C)C)cc2c(c1[N+](=O)[O-])C(C)(C)CC2(C)C the results were Ba CapD inh 1.18.
`CCN(CC)CC(O)CN1CCn2c3c(c4cc(C)ccc42)CCCC31` (stereo not drawn) gave AID504770 -0.85 and Ba CapD inh 1.08.
For Cn1c(=O)c2cc(C(=O)NCC3CCCO3)sc2c2ccc(Cl)cc21 (stereo not drawn) the results were AID504770 -0.75 and Ba CapD inh 0.2.
COc1ccc(C(=O)c2ccc(OC)cc2O)c(O)c1 was read as AID504770 0.4 and Ba CapD inh -0.91.
`CCC(=O)Nc1nc2ccc(S(C)(=O)=O)cc2s1` gave AID504770 -1.1 and Ba CapD inh 0.83.
Screening COc1cc2c(cc1OC)C(NNC(=O)C(F)(F)C(F)F)=NC(C)(C)C2 returned AID504770 0.85 and Ba CapD inh -1.43.
Clc1ccc(Cc2ccc(Cl)nn2)cc1 was read as AID504770 -0.5 and Ba CapD inh 1.23.
Screening Cn1cc(/C=N/NC(=O)c2cc(Br)ccc2Cl)c2ccccc21 returned Ba CapD inh -1.7.
CC(=O)Oc1ccc(C(=O)c2ccc(OC(C)=O)cc2)cc1 was read as AID504770 -0.3 and Ba CapD inh 0.045.
`N#Cc1ccccc1NC1=CC(=O)CCC1` gave AID504770 1.7 and Ba CapD inh -1.3.
Cc1ccc2nc(CN(C)Cc3c(F)cccc3Cl)cc(=O)n2c1 was read as AID504770 -0.4.
`Cc1cc(C)nc(Nc2ncc(O)n2-c2ccc(Cl)c(Cl)c2)n1` gave AID504770 -0.6 and Ba CapD inh 0.375.
COc1ccc(-n2nc(C(=O)NCC(=O)NCc3ccccc3OC)c3ccccc3c2=O)cc1 was read as Ba CapD inh 0.245.
For CCOC(=O)[C@@H]1[C@@H]2NC(=O)N[C@@]1(C)Oc1ccccc12 the results were AID504770 -0.25 and Ba CapD inh 0.555.
Cc1ccc2cc(S(N)(=O)=O)ccc2n1 was read as AID504770 -0.85 and Ba CapD inh -0.105.
COc1ccc(C(NC(=O)C2CC=CCC2C(=O)O)c2ccccc2)cc1 (stereo not drawn) was read as AID504770 -0.4 and Ba CapD inh 0.09.
For CN(Cc1ccccc1)C(=O)c1ccc(CS(=O)(=O)Cc2ccc(Cl)cc2)o1 the results were AID504770 -0.4 and Ba CapD inh -0.73.
For CCCNC(=O)Cn1c(C(=O)OC)ccc1-c1ccco1 the results were AID504770 -0.85 and Ba CapD inh -0.09.
For COc1ccc(C(=O)CS(=O)(=O)c2ccc3c(c2)OCCO3)cc1OC the results were AID504770 -0.15.
For CCC(=O)n1c2c(c3ccccc31)Nc1ccccc1N2 the results were AID504770 -1.
Screening CCC(=O)N(Cc1ccc(OC)cc1)C1CC(=O)N(c2ccc(OC)cc2)C1=O (stereo not drawn) returned AID504770 -0.35 and Ba CapD inh -0.375.
`Cc1ccc2c(c1C)C(C)(C)C1(C=Nc3c(ccc4ncccc34)O1)N2C` (stereo not drawn) gave Ba CapD inh -0.85.

Next section; the last four above are carried over.
For COc1ccc(C(=O)CS(=O)(=O)c2ccc3c(c2)OCCO3)cc1OC the results were AID504770 -0.15.
For CCC(=O)n1c2c(c3ccccc31)Nc1ccccc1N2 the results were AID504770 -1.
Screening CCC(=O)N(Cc1ccc(OC)cc1)C1CC(=O)N(c2ccc(OC)cc2)C1=O (stereo not drawn) returned AID504770 -0.35 and Ba CapD inh -0.375.
`Cc1ccc2c(c1C)C(C)(C)C1(C=Nc3c(ccc4ncccc34)O1)N2C` (stereo not drawn) gave Ba CapD inh -0.85.
For Cn1c(N)c(C(=O)c2ccc(Cl)c(S(=O)(=O)N3CCCCCC3)c2)c(=O)n(C)c1=O the results were AID504770 0.6.
Screening O=C(C1c2ccccc2Oc2ccccc21)N1CCc2ccccc21 returned AID504770 -0.25 and Ba CapD inh 0.97.
`O=C(NC1CCCC1OCc1ccccc1)OCCc1ccc(Br)cc1` (stereo not drawn) gave Ba CapD inh -0.12.
CNC(=S)N/N=C(\C)c1cccc([N+](=O)[O-])c1 was read as Ba CapD inh -0.6.
`O=C(CSc1nnc(NC(=O)C2CC2)s1)Nc1ccccc1F` gave AID504770 2.2.
CCCCCc1ccc(C(C)N)cc1 (stereo not drawn) was read as Ba CapD inh 0.99.
`Fc1ccc(-c2nnc3n2N=C2CCCCC2S3)cc1` (stereo not drawn) gave AID504770 -0.2.
`COc1ccc(C2=NOC(C(=O)N3CC4(C)CC3CC(C)(C)C4)C2)cc1OC` (stereo not drawn) gave AID504770 -0.15 and Ba CapD inh 0.11.
Screening O=C(/C=C/Nc1ccc(Oc2ccccc2)cc1)c1ccc(OCCCF)cc1 returned Ba CapD inh 0.5.
Screening COc1ccc(S(=O)(=O)N2CC3c4ccccc4CCN3C2c2cccc([N+](=O)[O-])c2)c2cccnc12 (stereo not drawn) returned Ba CapD inh 2.1.
`COc1ccc2oc(=Nc3ccccc3)c(C(N)=O)cc2c1` gave AID504770 0.4 and Ba CapD inh 0.66.
Screening CCN(CC)S(=O)(=O)c1ccc(NC(=O)c2cccc3c2C(=O)N(CCOC)C3)cc1 returned AID504770 -1.6 and Ba CapD inh -0.025.
N#CC(C#N)=CN1CCCCC1 was read as AID504770 -0.3 and Ba CapD inh -0.005.
`Cc1[nH]ncc1CNC(=O)c1ccc(NC(=O)C2=CSCCO2)cc1` gave AID504770 0.6 and Ba CapD inh -0.385.
CC1(C)COC2(CCC(=O)CC2)OC1 was read as Ba CapD inh -0.38.
For CN1C2CCC1CC(NC(=O)CCN1CCCCCC1)C2 (stereo not drawn) the results were Ba CapD inh -0.125.
`COc1ccc(COCC(O)CN2CCCC(C(F)(F)F)C2)cc1` (stereo not drawn) gave AID504770 -0.6.
For Cc1[nH]nc2nc(SCC(=O)NCCC3=CCCCC3)n(-c3ccc(Br)cc3)c(=N)c12 the results were Ba CapD inh -0.095.
Screening C/C=C1\CC(C)(CC)C(C#N)(C#N)C(N)=C1C#N (stereo not drawn) returned AID504770 0.15 and Ba CapD inh -0.395.
For O=S1(=O)CCN(Cc2ccc(-n3cccn3)cc2)CC1 the results were AID504770 -0.65 and Ba CapD inh 0.62.
Screening COc1cc2c(cc1OC)C(C)N(C(=O)CSCC(=O)O)CC2 (stereo not drawn) returned AID504770 -0.55 and Ba CapD inh 0.035.
`CCOC(=O)CSc1nc2c(sc(=S)n2-c2ccc(OCC)cc2)c(=O)[nH]1` gave Ba CapD inh -0.95.
C=CCN(C(=O)c1cc2ccccc2o1)C1(C(=O)Nc2ccc(F)cc2)CCN(C(C)=O)CC1 was read as AID504770 0.25.
COC(=O)COc1ccc(/C=C2\C(=O)NC(=O)N(c3ccc(C(C)C)cc3)C2=O)cc1OC was read as Ba CapD inh 0.105.
`Cc1cc(C)n(C(C)CC(=O)O)n1` (stereo not drawn) gave AID504770 -0.6.
For CCn1c(SC)nnc1C1CCN(C(=O)NC2CCCCC2)CC1 the results were AID504770 -0.45.
Screening CCOC(=O)C1CCCN(C(=O)COc2ccc(C)c(C)c2)C1 (stereo not drawn) returned AID504770 -1.6 and Ba CapD inh 0.265.
For O=C1C2C3C=CC(C3)C2C(=O)N1c1cccc2ccccc12 (stereo not drawn) the results were AID504770 1.05 and Ba CapD inh -0.18.
For O=C(COC(=O)CCc1ccccc1)Nc1ccc2c(c1)OCCO2 the results were AID504770 0.15.
For COc1cc(NC(=O)c2sc3ncn(CC(=O)N4CCN(c5ccccn5)CC4)c(=O)c3c2C)cc(OC)c1OC the results were Ba CapD inh -0.585.
Screening Cn1cnnc1-c1cccc(NC(=O)C(c2ccccc2)c2ccccc2)c1 returned AID504770 -1 and Ba CapD inh -0.165.

In the list so far, these contain a nitro group on carbon:
For Cc1c(NNc2cc3c(c([N+](=O)[O-])c2C)C(C)(C)CC3(C)C)cc2c(c1[N+](=O)[O-])C(C)(C)CC2(C)C the results were Ba CapD inh 1.18.
CNC(=S)N/N=C(\C)c1cccc([N+](=O)[O-])c1 was read as Ba CapD inh -0.6.
Screening COc1ccc(S(=O)(=O)N2CC3c4ccccc4CCN3C2c2cccc([N+](=O)[O-])c2)c2cccnc12 (stereo not drawn) returned Ba CapD inh 2.1.

High-throughput results (PubChem BioAssay)
